2A firefly – lowers the firefly signal of an FMDV 2A StopGo reporter; Potency, µM (top dose mostly 57.5 µM), for inactives: top-dose signal change, negative = less light; 120,000 tested, 0.23% active; AID 1745856; HEK cells with a luciferase reporter of 2A StopGo recoding; active = well fitted falling curve with a large enough effect; inconclusive = small, poorly fitted or top-dose-only effect; inactive = no such curve, though single readings can be large or run the other way; further: nearly all actives have a fitted effect of over 60% in size; overnight with compound
StopGo RLuc – lowers the Renilla signal of an FMDV 2A StopGo reporter; HEK cells with a luciferase reporter of 2A StopGo recoding; Potency, µM (highest dose often 57.5 µM), without a hit: top-dose signal change, negative = less light; 120,000 tested, 0.32% active; AID 1745857; active means well fitted falling curve with a large enough effect; inconclusive means small, poorly fitted or top-dose-only effect; inactive means no such curve, though single readings can be large or run the other way; further: nearly all actives have a fitted effect of over 55% in size; overnight with compound
* marks the source's active call; other numbers are inactive results; ? = inconclusive; [ ] = remark or other dose. On the % scale 0 is the no-effect control and ±100 the full control effect; potency means the concentration at half of the fitted maximal effect.

SMILES | 2A firefly | StopGo RLuc
Cc1ccc(NC(=O)CSc2nc3c([nH]c4ccccc43)c(=O)n2-c2ccccc2)c(C)c1 | -13% | -13%
CCCn1nc(C(=O)N(C)Cc2ccccc2N2CCCCC2)c2ccccc2c1=O | ? | -17%
O=C(O)/C=C/c1cc(Cl)cc(Cl)c1 | 1% | 3%
Cc1ccc(-n2ncc(C(=O)NCCCN3CCN(C)CC3)c2C2CCN(C(=O)OC(C)(C)C)CC2)cc1 | -12% | 4%
N#CC(c1nc2ccccc2nc1N1CCCCC1)S(=O)(=O)c1cccc(Cl)c1 (stereo not drawn) | ? | ?
Cc1ccc(C(=O)OCC(=O)c2ccc(C3CCCCC3)cc2)cc1 | 20% | 4%
Cc1ccc(-n2cc(C(=O)Oc3ccc(F)cc3)c3ccccc3c2=O)cc1 | -25% | -14%
Cc1cccc(Nc2nnc(-c3cc4ccc(O)cc4oc3=O)s2)c1 | 0% | -3%
CCn1nc(C(=O)NCCC(C)C)c2ccccc2c1=O | 10% | 23%
CCCCCCCCOc1ccc(-c2ccc(CCCCCCCC)cn2)cc1F | 2% | -3%
Cc1ccccc1NC(=O)CN(c1ccc(Cl)cc1Cl)S(=O)(=O)c1ccccc1 | -18% | 43%[activator]
COc1cccc(NC(=O)C(C(C)C)n2c(=O)[nH]c3ccccc3c2=O)c1 (stereo not drawn) | 5% | 2%
CC(C)Oc1ccc(NC(=O)c2cc3cc(Br)ccc3oc2=O)cc1 | 19% | -7%
CC(C)Oc1ccc(C(=O)Nc2ccc3oc(-c4cccnc4)nc3c2)cc1 | ? | ?
CCOC(=O)c1scc(-c2ccc(C)cc2)c1S(=O)(=O)Nc1ccc(OC)c(Cl)c1 | -9% | 39%[activator]
Cc1cc(S(=O)(=O)Nc2ccc(-c3ccc(N4CCCCCC4)nn3)cc2)c(C)cc1Cl | 39%[activator] | 117%[activator]
N#Cc1ccc(/C=C/c2nc3ccccc3s2)cc1 | 7% | 1%
O=C(COc1ccc(F)cc1Cl)NCCc1nnc2ccccn12 | -3% | -6%
CCNS(=O)(=O)c1ccc2c(c1)NC(=O)CO2 | -1% | 98%[activator]
COc1cc(/C=C(\C#N)C(=O)c2ccc(C)cc2)ccc1OCc1c(Cl)cccc1Cl | 4% | 13%
CCCNC(=O)Nc1cccc(C(=O)NC)c1C | 5% | -15%
Cc1ccccc1C(=O)c1cccn1CC(=O)NCc1ccccc1 | 82%[activator] | 9%
CCc1ccc(C(=O)c2cn(CC(=O)Nc3cc(OC)ccc3OC)c3ccc(C)cc3c2=O)cc1 | -8% | 4%
CSc1ccc(/C=C/C(=O)c2ccc(NC(=O)c3cccc(C)c3)cc2)cc1 | 24% | 48%[activator]
CCOC(=O)c1cc2c(=O)n3ccccc3nc2n(Cc2ccco2)c1=NC(=O)c1cc(C)cc(C)c1 | -15% | -10%
Further records follow:
SMILES | 2A firefly | StopGo RLuc
CC(=O)Nc1ccc(SCC(=O)N(Cc2nc3ccccc3c(=O)[nH]2)CC2CCCO2)cc1 (stereo not drawn) | 2% | 10%
COc1cccc(NC(=O)CCc2nc(-c3cccs3)no2)c1 | 20% | -7%
CC(C)COc1ccc(/C=C(/C#N)c2nc3ccccc3[nH]2)cc1 | 0% | ?
COc1ccc(N2CCN(C(=O)Nc3cn(CC(C)C)c(=O)c4ccccc34)CC2)cc1 | -20% | -8%
O=C(Cn1nc(N2CCN(c3ccccc3)CC2)ccc1=O)Nc1ccccc1F | 60%[activator] | 6%
CC1CCN(CC(O)COCc2ccccc2)CC1 (stereo not drawn) | 21% | -6%
O=C(CCC1CCCO1)N1CCSCC1 (stereo not drawn) | 8% | -11%
COc1ccccc1NC(=O)Nc1nnc(CC(=O)Nc2cccc(C)c2)s1 | -9% | -14%
CCCSc1nc2c(c(=O)[nH]1)C(C(=O)Nc1ccccc1F)CC(=O)N2 (stereo not drawn) | -1% | 1%
Cc1cc2oc(C(=O)Nc3nc(-c4ccccc4)ns3)c(C)c2cc1Cl | -24% | -14%
CCOC(=O)c1c(NC(=O)c2cc(-c3ccc(Cl)cc3)on2)sc2c1CCCC2 | -8% | 1%
COC(=O)c1ccc(COc2ccc3c(=O)c(Oc4cccc(C)c4)c(C(F)(F)F)oc3c2)cc1 | 6% | 1%
Cc1ccc(-c2cnoc2NC(=O)CSc2nc3c(c(=O)[nH]2)CCCC3)cc1 | 4% | 9%
Cc1cccc(Nc2nc(-c3ccc4c(c3)CCC(=O)N4)cs2)c1 | 114%[activator] | -1%
Cc1ccc(-c2ocnc2C(=O)Nc2ccccc2C)s1 | 27% | 3%
COc1ccc(OC)c(NC(=O)COC(=O)c2cc(C)sc2C)c1 | 5% | 2%
CC(C(=O)N1CCCCCC1)N1CCC(c2nc3ccccc3o2)CC1 (stereo not drawn) | 3% | -13%
S=C(NC1CCSc2ccccc21)NC1CC2CCC1C2 (stereo not drawn) | 0% | 133%[activator]
CCN1c2cc(C)ccc2-n2cccc2C12CCN(C(=O)NCc1cccc(OC)c1)CC2 | -28% | -28%
Cc1ccccc1-n1c(SCC(=O)Nc2ccc(Cl)cc2F)nnc1-c1cc2occc2n1C | -4% | 2%
COc1ccc(C2CC(=O)c3cc(-c4nc(-c5cccc([N+](=O)[O-])c5)cs4)c(=O)n(-c4ccc(C)c(C)c4)c3C2)cc1 (stereo not drawn) | -8% | 37%[activator]
CCCc1cc(=O)[nH]c(Nc2cc(Cl)ccc2OC)n1 | -11% | -3%
CC1=C(C(=O)Nc2ccc(C)cc2C)C(c2cccn2C)n2ncnc2N1 (stereo not drawn) | -23% | -14%
O=C(CSc1nc(-c2ccc(Cl)cc2)nc2c1Cc1ccccc1O2)N1CCCCC1 | -10% | 0%
Cc1noc(C)c1CC(=O)NC(c1ccccc1F)c1nccn1C (stereo not drawn) | 11% | 6%
Further records follow.
SMILES | 2A firefly | StopGo RLuc
O=C(Cc1ccccc1F)NC1CC2CC1C1CCCC21 (stereo not drawn) | 0% | 33%[activator]
COc1ccc(-c2cc3ccc(OC(=O)c4ccco4)cc3oc2=O)cc1 | 95%[activator] | 9%
Cc1cc(C)c2c(c1)[C@]1(C(=O)N2)N2CCC[C@H]2[C@@H](C(=O)c2ccc(F)cc2)[C@]12C(=O)Nc1ccccc12 | -3% | -12%
CC1=C(C(=O)Nc2ccc(C)cc2C)C(c2ccc(C)cc2)NC(=S)N1 (stereo not drawn) | -6% | -4%
O=C1C=C(Cl)c2cccc3cccc1c23 | 18% | 3%
CCOC(=O)c1c(NC(=O)/C=C/c2ccc(C(C)C)cc2)sc2c1CCC2 | -14% | -11%
COc1cccc(C(=O)Nc2cc3cc(OC)ccc3oc2=O)c1 | -8% | -11%
O=C(CN1CCN(C(=O)c2cc(-c3ccccc3)n[nH]2)CC1)N1CCCCC1 | 10% | 14%
O=C(O)CCNS(=O)(=O)c1ccc(Cl)c(C(F)(F)F)c1 | 4% | 5%
CCOc1cc(Br)cc2cc(C(=O)NCc3ccccc3)c(=O)oc12 | 12% | -1%
COc1ccc(Nc2nc(-c3ccc(CNC(C)=O)cc3)cs2)cc1 | 47%[activator] | -23%
CCc1ccccc1NC(=O)CSc1nnc(-c2ccccc2)c(-c2ccccc2)n1 | -17% | 26%
O=c1c2ccccc2[se]c2ccccc12 | 217%[activator] | 25%
COc1ccc(CNc2nc(-c3ccco3)nn2S(=O)(=O)c2ccc3ccccc3c2)cc1OC | -4% | 113%[activator]
O=C(c1cccc(Cl)c1)N1CCCN(c2cn[nH]c(=O)c2Cl)CC1 | 15% | 3%
COc1ccc(CC2C(=O)Nc3ccc(Br)cc32)cc1 (stereo not drawn) | 14% | 16%
O=C(CSc1ncccc1C(=O)Oc1ccccc1Cl)Nc1ccccc1Cl | 71%[activator] | -7%
O=C(CCS(=O)(=O)c1cccs1)Nc1ccc(C(=O)Nc2ccccc2F)cc1 | 104%[activator] | -15%
CC(=O)Nc1nc2ccc(CC(=O)N3CCN(c4ccccc4F)CC3)cc2s1 | 28% | 75%[activator]
COc1ccc(N2CCN(C(=O)c3c(C)nn(-c4ccc(F)cc4)c3-n3cccc3)CC2)cc1 | -7% | 2%
CCC1CN(C(=O)N2CCC(C(=O)N3CCN(c4cccc(C)c4C)CC3)CC2)c2ccccc2O1 (stereo not drawn) | ? | 28µM*
CCN(C(=O)Cn1c(=O)oc2cc(Cl)ccc21)c1cccc(C(F)(F)F)c1 | -6% | -6%
CC(C)CCNC(=O)c1ccc2c(c1)NC(=O)C(CS(=O)(=O)Cc1ccc(F)cc1)N2 (stereo not drawn) | -3% | -7%
CCCc1nn2c(=O)cc(CN(CCC)Cc3ccc(OCC)cc3)nc2s1 | 3% | 20%
O=C(Nc1cccc(CN2CCOC2=O)c1)N1CCCCCCC1 | 0% | ?
Next results follow.
SMILES | 2A firefly | StopGo RLuc
COc1ccc(/C(O)=C2\C(=O)C(=O)NC2c2ccc(C(C)(C)C)cc2)cc1F (stereo not drawn) | 24% | 6%
COc1cc(OC)c2c(C)c(CC(=O)NCCc3ccccc3OC)c(=O)oc2c1 | -4% | 1%
COc1ccc(OC)c(-c2cc(C(=O)Nc3c(C)nn(Cc4ccc(C)cc4)c3C)no2)c1 | -7% | -2%
O=C(c1cc(-c2cccs2)nc2ccccc12)N1CCC1 | 22% | 40%[activator]
Cc1ccc(C(=O)Nc2cccc(C(=O)OCc3cc(=O)n4nc(C5CC5)sc4n3)c2)cc1 | ? | -3%
COc1ccc(Cl)cc1NC(=O)CN1c2ccccc2S(=O)(=O)c2ccccc21 | -10% | 7%
COc1ccc(-c2nc(CNS(=O)(=O)c3cccc(F)c3)cs2)cc1 | -8% | -9%
COc1ccc(CCNC(=O)Cn2c(=O)n(-c3cc(OC)c(OC)c(OC)c3)c(=O)c3ccccc32)cc1OC | -18% | -10%
CCOc1ccc(-c2c(C)nn3c(C)c(C(=O)NCCc4ccc(C)cc4)cnc23)cc1OCC | -1% | 5%
COc1cccc(-c2nc(SCC(=O)N3CCc4ccccc43)c3c(=O)n(C)c(=O)n(C)c3n2)c1 | -16% | -13%

18 neighbouring records from above, for reference:
SMILES | 2A firefly | StopGo RLuc
O=C(CCS(=O)(=O)c1cccs1)Nc1ccc(C(=O)Nc2ccccc2F)cc1 | 104%[activator] | -15%
CC(=O)Nc1nc2ccc(CC(=O)N3CCN(c4ccccc4F)CC3)cc2s1 | 28% | 75%[activator]
COc1ccc(N2CCN(C(=O)c3c(C)nn(-c4ccc(F)cc4)c3-n3cccc3)CC2)cc1 | -7% | 2%
CCC1CN(C(=O)N2CCC(C(=O)N3CCN(c4cccc(C)c4C)CC3)CC2)c2ccccc2O1 (stereo not drawn) | ? | 28µM*
CCN(C(=O)Cn1c(=O)oc2cc(Cl)ccc21)c1cccc(C(F)(F)F)c1 | -6% | -6%
CC(C)CCNC(=O)c1ccc2c(c1)NC(=O)C(CS(=O)(=O)Cc1ccc(F)cc1)N2 (stereo not drawn) | -3% | -7%
CCCc1nn2c(=O)cc(CN(CCC)Cc3ccc(OCC)cc3)nc2s1 | 3% | 20%
O=C(Nc1cccc(CN2CCOC2=O)c1)N1CCCCCCC1 | 0% | ?
COc1ccc(/C(O)=C2\C(=O)C(=O)NC2c2ccc(C(C)(C)C)cc2)cc1F (stereo not drawn) | 24% | 6%
COc1cc(OC)c2c(C)c(CC(=O)NCCc3ccccc3OC)c(=O)oc2c1 | -4% | 1%
COc1ccc(OC)c(-c2cc(C(=O)Nc3c(C)nn(Cc4ccc(C)cc4)c3C)no2)c1 | -7% | -2%
O=C(c1cc(-c2cccs2)nc2ccccc12)N1CCC1 | 22% | 40%[activator]
Cc1ccc(C(=O)Nc2cccc(C(=O)OCc3cc(=O)n4nc(C5CC5)sc4n3)c2)cc1 | ? | -3%
COc1ccc(Cl)cc1NC(=O)CN1c2ccccc2S(=O)(=O)c2ccccc21 | -10% | 7%
COc1ccc(-c2nc(CNS(=O)(=O)c3cccc(F)c3)cs2)cc1 | -8% | -9%
COc1ccc(CCNC(=O)Cn2c(=O)n(-c3cc(OC)c(OC)c(OC)c3)c(=O)c3ccccc32)cc1OC | -18% | -10%
CCOc1ccc(-c2c(C)nn3c(C)c(C(=O)NCCc4ccc(C)cc4)cnc23)cc1OCC | -1% | 5%
COc1cccc(-c2nc(SCC(=O)N3CCc4ccccc43)c3c(=O)n(C)c(=O)n(C)c3n2)c1 | -16% | -13%

From PubChem BioAssay

This is a random part of the collection; 0.55% or so of the library scored in one or more.
